Screening data from PubChem.
eIF4H inh: inhibitors of RNA binding by human eIF4H. Q15056. eIF4H fluorescence polarization binding assay. inhibition, % at 35 µM. actives 0.94% (n = 290,000). AID 2012;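 active means 50% or more with normal probe brightness, or confirmed in later tests; inconclusive means above 50% with abnormal brightness, or retests that disagree; inactive means below 50% or failed in later tests; about a fifth of its hits are not listed in these tables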;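 further: calls also rest on retests at 20 µM and on dose response follow-up; 0% = protein and probe with vehicle and 100% = probe without protein; strong numbers were not always called active; many hits fall short of the cut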
UUG fidelity: modulators of start codon recognition fidelity in yeast. actives 0.13% (n = 350,000). activity score, % at 18.7 µM. S. cerevisiae UUG-firefly luciferase reporter, luminescence/redox ratio;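 active means replicate mean at a twofold rise or more, about +100% in these data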;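 further: firefly luciferase made from a UUG start codon reports start codon fidelity; reporter light over untreated wells divided by growth signal over untreated wells; some hits fall short of that in this replicate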
MT1-MMP act inh: MT1-MMP (human) activation inhibition. P50281. HT1080 RFP-PRO-GFP cells, GFP/RFP ratio fluorescence, overnight; percent of plate control window, DMSO zero. GFP/RFP ratio change, % at 20 µM. actives 0.061% (n = 360,000). AID 651647;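 active means GFP/RFP ratio change of at least 30% with cell ATP level not reduced by more than half and red fluorescence within 50% of control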; further: strong numbers were not always called active
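Test system: HT1080 RFP-PRO-GFP cells; Benchmarks: DMSO and RFP-L50D-GFP cell wells; Timing: cells overnight before dosing, compound overnight, 37 °C, 5% CO2; Compound: one 20 µM compound dose with 1% DMSO; Read-out: GFP/RFP fluorescence ratio.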
Rce1 inh: blocks yeast Ras-converting enzyme; calls only; yeast membranes, quenched prenylated peptide cleavage fluorescence; actives 0.27% (n = 290,000); AID 2563; Q03530;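 active means fall in fluorescence gain of 50% or more versus controls, with final raw signal at or below 3038400; inconclusive means same 50% fall but final raw signal above 3038400; inactive means fall in fluorescence gain under 50%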;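 further: plate controls were neutral control wells for no effect and wells lacking membranes for full effect; tested at 10 µM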
Target sequence (Q03530 whole entry, looked up): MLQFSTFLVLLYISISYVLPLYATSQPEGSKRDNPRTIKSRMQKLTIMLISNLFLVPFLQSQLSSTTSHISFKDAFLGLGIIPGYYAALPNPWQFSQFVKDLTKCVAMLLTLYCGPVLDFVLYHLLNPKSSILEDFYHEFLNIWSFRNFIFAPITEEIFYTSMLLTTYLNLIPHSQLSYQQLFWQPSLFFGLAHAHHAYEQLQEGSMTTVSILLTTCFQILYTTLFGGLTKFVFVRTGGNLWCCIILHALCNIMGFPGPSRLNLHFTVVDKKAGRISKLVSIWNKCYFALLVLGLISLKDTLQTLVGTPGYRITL
PABP polyA inh: blocks human PABP binding to poly(A) RNA. P11940. fluorescence polarization. inhibition, % at 35 µM. actives 1% (n = 290,000). AID 2014;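 active means 50% or more with normal probe brightness, or confirmed in later tests; inconclusive means above 50% with abnormal brightness, or retests that disagree; inactive means below 50% or failed in later tests; about a fifth of its hits are not listed in these tables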;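 further: calls also rest on retests at 20 µM and on dose response follow-up; controls were probe without protein and protein plus probe with vehicle; some compounds called inactive have numbers as strong as hits; many hits fall short of the cut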
Target sequence (P11940 whole entry, looked up): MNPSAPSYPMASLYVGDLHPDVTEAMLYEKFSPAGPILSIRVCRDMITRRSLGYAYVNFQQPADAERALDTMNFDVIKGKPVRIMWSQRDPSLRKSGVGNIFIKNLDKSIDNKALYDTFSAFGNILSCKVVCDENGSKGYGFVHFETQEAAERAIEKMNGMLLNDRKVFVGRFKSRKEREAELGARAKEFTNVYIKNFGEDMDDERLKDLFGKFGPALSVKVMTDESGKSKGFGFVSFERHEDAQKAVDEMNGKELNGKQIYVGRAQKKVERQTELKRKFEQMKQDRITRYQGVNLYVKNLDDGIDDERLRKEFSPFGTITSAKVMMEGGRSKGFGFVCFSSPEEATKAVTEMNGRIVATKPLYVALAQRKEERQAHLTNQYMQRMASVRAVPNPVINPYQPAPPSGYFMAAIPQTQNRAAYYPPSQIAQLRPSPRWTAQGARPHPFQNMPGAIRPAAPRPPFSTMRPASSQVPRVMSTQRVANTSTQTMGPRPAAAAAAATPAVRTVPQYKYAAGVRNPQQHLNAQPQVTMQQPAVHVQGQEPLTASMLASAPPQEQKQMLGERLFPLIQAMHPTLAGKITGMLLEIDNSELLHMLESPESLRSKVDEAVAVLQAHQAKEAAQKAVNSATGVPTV
CSC inhib: cancer stem cell inhibition; inhibition, % at 7.5 µM; cancer stem cell-like cells viability, luminescence; actives 1.1% (n = 300,000);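 active means mean at 75% or more and at least half the replicates too; inconclusive means mean and replicates disagree; tested in HMLE shEcad cells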;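 further: 0% = median of negative and 100% = median of positive control wells; the first replicate is given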
HIV Env fusion: HIV envelope-mediated fusion inhibition | inhibition, % at 12.3 µM | AID 651610 | HeLa-JRFL Env/CEM21 cell fusion, luciferase | actives 1.1% (n = 360,000);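 active means mean replicate inhibition score of at least 50 and every replicate individually at or above 50; inconclusive means only one of the two criteria met; inactive means mean below 50 and not all replicates reaching 50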;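 further: 0% = plate neutral controls and 100% = maraviroc near 300 nM; one replicate is shown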
eIF4H inh retest: also measured in eIF4H inh; calls as there; inhibition, %; compound at 20 µM; confirmation average;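 mean of two retest wells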
PABP polyA inh retest: further read-out of PABP polyA inh, marked with its call; inhibition, %; compound at 20 µM; confirmation repeats;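 mean of two retest wells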
MT1-MMP act inh RFP: further read-out of MT1-MMP act inh, marked with its call; RFP signal change, %; measured here: RFP expression control read;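 0 = vehicle wells; hits needed this value within 50% of zero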
* = called active by the depositor; i = inactive; u = inconclusive; x = no result given.

SMILES	eIF4H inh	UUG fidelity	MT1-MMP act inh	MT1-MMP act inh RFP	Rce1 inh	PABP polyA inh	CSC inhib	HIV Env fusion	others
Cc1cc(NC(=O)CSCC(=O)OCc2nnc(-c3ccc(F)cc3)o2)no1	x	14	1	4	x	x	-13	0
COc1ccccc1CN1CC(C(=O)NCc2c(F)ccc(C)c2F)CCC1=O (configuration not stated)	x	-15	5	5	i	x	-4	-24
O=C(CC12CC3CC(CC(Br)(C3)C1)C2)NCc1ccccc1	-17	-12	1	5	i	7	0	-8
COC(=O)c1ccccc1NS(=O)(=O)c1ccc(Cl)nc1	1	-11	6	5	i	-8	9	8
Cc1ccc(-n2c(SCC(=O)N3CCCCC3)nc(O)cc2=O)cc1	-2	-10	3	0	i	8	-3	3
COCCCNC(=S)N/N=C/c1cccc(OC)c1O	6	-27	5	3	i	4	2	-8
CCc1ccc(NS(=O)(=O)c2ccc3oc(=O)ccc3c2)cc1	-3	-1	x	x	i	-15	-6	8
N#Cc1c(-c2ccccc2)cc(-c2ccccc2)nc1SCC(=O)NCC(=O)O	-2	-5	-3	4	i	13	1	-27
COc1ccccc1N1CCN(C2=Nc3cccc4cccc2c34)CC1	25	-9	-7	-6	i	37	-4	-105
CCOC(=O)c1c(Cc2ccc(Cl)cc2)c[nH]c1C	-1	x	-6	-6	i	-16	x	-6
O=C(O)c1cnn2c(C(F)(F)F)cc(-c3ccco3)nc12	78*	-9	1	4	i	35*	-9	-28	eIF4H inh retest=98*;PABP polyA inh retest=61*
CN(C1CCCCC1)S(=O)(=O)c1ccc2c(c1)c(=O)c(C(=O)NCCCN1CCCC1)cn2C	0	-4	-1	3	i	-11	-11	-8
CCCN(CCC)CC(O)COc1ccc([N+](=O)[O-])cc1 (configuration not stated)	-1	-4	3	0	i	3	-8	x
CC(NC(=O)CCC(=O)Nc1ccccc1O)c1ccccc1 (configuration not stated)	x	-14	3	7	i	x	-2	1
COc1ccc(C(NC(=O)C2CCN(Cc3cc(OC)cc(OC)c3)CC2)c2ccccn2)cc1 (configuration not stated)	x	-24	-1	9	x	x	x	5
CCOC(=O)[C@@H]1[C@H]2COc3ccc(Br)cc3[C@H]2N2C(=O)N(c3ccc(C)cc3)C(=O)[C@]12C	-15	13	1	-6	i	4	8	-13
COc1ccc2ccccc2c1/C=N/NC(=O)c1cccc([N+](=O)[O-])c1	-3	-6	-2	0	i	-4	3	-14
COc1ccc(CC(=O)Nc2ccc(-c3ccc4nnc(C)n4n3)cc2)cc1OC	2	-17	15	8	i	1	10	-23
COc1ccc(OC)c(-n2c(SCC(=O)Nc3cccc(S(N)(=O)=O)c3)nc3ccccc3c2=O)c1	0	-3	-7	-4	i	6	-16	7
N#CCOc1nc(N2CCCCC2)nc(N2CCCCC2)n1	-9	-7	1	-14	i	-3	2	u
O=C(O)/C(=C\c1ccccc1OC(F)F)Sc1nnc(-c2ccc(F)cc2)o1	-5	-12	4	1	i	-4	-6	6
COc1cc(C2Nc3cccc4cccc(c34)N2)cc(OC)c1OC(C)=O	89*	x	-2	1	i	57*	2	x
C/C=C(\C)C(=O)Nc1cccc(C2=NOC3(C2)C[C@H](C(N)=O)N(C(=O)c2cc([N+](=O)[O-])cc([N+](=O)[O-])c2)C3)c1 (some centres not stated)	0	2	1	-3	i	11	-1	-3
Cc1cccn2c(=O)c3cc(C(=O)NCCN4CCOCC4)c(=N)n(CCCN4CCOCC4)c3nc12	-7	-20	5	4	i	28	6	-15
CCCCN1CC(N2CCN(Cc3ccccc3)CC2)CS1(=O)=O (configuration not stated)	x	0	5	-1	x	x	x	-70
CNC(=O)c1ccc(-n2cccn2)nc1	5	x	0	-7	i	14	-13	4
CC(=O)Nc1ccc(S(=O)(=O)N(C)CC(=O)OCC(=O)NC(C)C23CC4CC(CC(C4)C2)C3)cc1 (configuration not stated)	7	x	2	5	i	-7	x	19
CCN(CC)S(=O)(=O)c1ccc(N2CCOCC2)c(NC(=O)COc2ccc(OC)cc2)c1	x	8	1	-4	x	x	-15	7
CCOC(=O)/C=C(C)\C=C\c1c[nH]c2ccccc12	-18	x	4	-1	i	-9	20	-19
COc1ccc(CCNC(=O)CN(c2ccccc2OC)S(=O)(=O)c2ccc(C)cc2)cc1	-1	-15	-4	-9	i	-9	-3	-27

A section from the list above, as a working copy:
SMILES	eIF4H inh	UUG fidelity	MT1-MMP act inh	MT1-MMP act inh RFP	Rce1 inh	PABP polyA inh	CSC inhib	HIV Env fusion	others
N#CCOc1nc(N2CCCCC2)nc(N2CCCCC2)n1	-9	-7	1	-14	i	-3	2	u
O=C(O)/C(=C\c1ccccc1OC(F)F)Sc1nnc(-c2ccc(F)cc2)o1	-5	-12	4	1	i	-4	-6	6

Part of the list above in order of formula weight, rising.
SMILES	eIF4H inh	UUG fidelity	MT1-MMP act inh	MT1-MMP act inh RFP	Rce1 inh	PABP polyA inh	CSC inhib	HIV Env fusion	others
CNC(=O)c1ccc(-n2cccn2)nc1	5	x	0	-7	i	14	-13	4
CCOC(=O)[C@@H]1[C@H]2COc3ccc(Br)cc3[C@H]2N2C(=O)N(c3ccc(C)cc3)C(=O)[C@]12C	-15	13	1	-6	i	4	8	-13
CC(=O)Nc1ccc(S(=O)(=O)N(C)CC(=O)OCC(=O)NC(C)C23CC4CC(CC(C4)C2)C3)cc1 (configuration not stated)	7	x	2	5	i	-7	x	19

The list continues.
SMILES	eIF4H inh	UUG fidelity	MT1-MMP act inh	MT1-MMP act inh RFP	Rce1 inh	PABP polyA inh	CSC inhib	HIV Env fusion	others
COc1ccc2c(CC(=O)NC(Cc3ccc(Cl)cc3)C(=O)O)cc(=O)oc2c1C (configuration not stated)	-1	-2	-3	-1	i	6	7	15
COc1cc(OC)c(-c2nc3c[n+](CC(=O)c4ccccc4)ccc3n2C)cc1OC	-2	-1	3	9	i	-6	-4	x
C=CC[C@@H](CC(=O)NCCO)C(=O)N[C@@H](C)COC(=O)[C@H](CC=C)CC(=O)OC(C)(C)C	x	4	-2	2	x	x	x	-32
O=C(CN1c2cccc3cccc(c23)S1(=O)=O)Nc1ccc(S(=O)(=O)N2CCOCC2)cc1	18	-10	10	2	i	4	-7	-105
O=C(c1ccccc1)c1ccc(C(=O)N2CCN(c3ccccc3)CC2)cc1	-1	-4	2	3	i	-19	6	-5
COc1ccc(Cc2nnc(SCC(=O)N(c3ccccc3)C(C)C)n(N)c2=O)cc1	x	-12	2	-3	i	x	-8	-2
O=C1C=C(/C=C/C2C=CC=CC2)C[C@@H](c2ccc(Cl)cc2)C1 (some centres not stated)	x	-17	2	2	x	x	44	-52
CCOC(CNC(=O)c1ccc2c(c1)nc(C)n2-c1cccc(F)c1)OCC	2	x	-1	-3	i	-6	-7	x
Cc1nc2oc3ccccc3c(=O)c2c(=O)n1Cc1ccccc1	-9	-14	11	0	i	4	-9	-103
Cc1ccc2cc3c(N)c(C(=O)N4CC(=O)Nc5ccccc54)sc3nc2c1	8	x	x	x	i	2	-7	x
O=c1c(Cl)c(N2CCN(c3ccccc3)CC2)cnn1C12CC3CC(CC(C3)C1)C2	7	-5	3	-1	i	1	68	0
C#CCOCCOCCOCCNc1nc(N2CCN(C(=O)[C@H]([C@@H](C)CC)n3cc([C@@H](N)Cc4ccc(O)cc4)nn3)CC2)nc(N2CCN(C(=O)[C@H]([C@@H](C)CC)n3cc([C@@H](N)Cc4ccc(O)cc4)nn3)CC2)n1	-2	8	6	6	i	-7	-11	-25
Nc1c(Cl)cc(-c2csc(N3CCCC3c3nc4cc(Cl)c(Cl)cc4n3CCCO)n2)cc1Cl (configuration not stated)	x	-19	-2	-4	i	x	9	15
Cc1nc2ccc(NS(=O)(=O)c3ccc(F)c(C)c3)cc2[nH]1	-2	-20	-1	-29	i	-11	-1	22
Cc1cccc(C(=O)NC2CCN(S(=O)(=O)c3ccccc3)CC2)c1	-8	-22	-3	0	i	0	-7	5
COc1cccc(CNc2ccc(S(N)(=O)=O)cc2)c1OCc1ccccc1F	-5	x	-3	-9	i	7	8	13
CC(C)(C)c1nc(N2CCN(C(=O)c3ccco3)CC2)c2nnn(Cc3ccccc3)c2n1	-6	-25	-16	-19	i	-3	x	-48
C/C(=N/NC(=O)c1cc(C(C)C)[nH]n1)c1cccs1	0	-42	1	1	i	12	x	-58
CCOC(=O)CCCNC(=O)c1cncc(O)c1	-7	-8	6	5	i	23	-13	-14
NC(=O)c1ccc(NC(=O)CNC(c2ccccc2)c2ccccc2)cc1	-3	7	-10	-6	i	-8	-6	6
CSc1nc2ccccc2n1CC(=O)Nc1ccc(C)c(C)c1	-7	x	8	-4	i	-2	-1	x
CC(C)CCNC(=O)COC(=O)c1ccc(Br)o1	-6	-16	4	5	i	-2	12	-36
Cc1cc(NC(=O)Cn2c(=O)c3c(ncn3CCC(C)C)n(Cc3ccccc3)c2=O)no1	-2	-2	-7	-2	x	16	-11	20
COc1ccc(NC(=O)COC(=O)C2CC3C=CC2C3)cc1 (configuration not stated)	0	x	5	3	i	-12	1	-42
O=C(N/N=C/C(Br)=C/c1ccccc1)C1CC1	4	x	2	0	x	-3	7	-19
CC1CC(C)CN(C(=O)C(NS(=O)(=O)c2ccc3c(c2)oc(=O)n3C)C(C)C)C1 (configuration not stated)	2	-7	-7	5	i	3	-12	7
CCN(CC(=O)N1CCCC1)S(=O)(=O)c1ccc(OC)cc1	6	-7	x	x	i	-8	x	3
c1cc(C2CCCCC2)ccc1Oc1nc(N2CCOCC2)nc(N2CCOCC2)n1	4	3	-7	-3	i	8	-17	x
Cc1nc(SCC(=O)NCc2ccc3c(c2)OCO3)c(C#N)c2c1CCCC2	-5	-15	-5	-2	i	-1	29	-2
CC(O)(c1cccc(F)c1)c1nc(-c2cccc(C#N)c2)cs1 (configuration not stated)	x	-10	0	-2	x	x	x	46
OC(c1cccs1)c1nccc2ccccc12 (configuration not stated)	6	-18	3	3	i	-3	10	x
O=[N+]([O-])c1ccc(F)cc1OCc1cccc(S(=O)(=O)N2CCOCC2)c1	x	x	5	-2	i	x	8	-16
O=C(NNC(=S)Nc1ccc(Br)cc1)c1cccnc1	10	-27	2	6	i	-5	7	-7
COCc1[nH]nc2c1C(c1sccc1C)C(C#N)=C(N)O2 (configuration not stated)	5	-7	-6	-9	i	-2	5	37
Cc1ccc(-c2cccc(NC(=O)C3C4C=CC(C4)C3C(=O)O)c2)o1 (configuration not stated)	-6	-8	0	4	i	-2	x	x
O=C1NC(=O)/C(=C/c2cc3c(cc2Br)OCO3)S1	-6	-1	6	-7	i	8	5	12
COc1cc2[nH]c3c(OC)ncnc3c2cc1OC	-3	-9	13	2	i	7	16	10
Cc1cccc(CCNS(=O)(=O)c2ccc(S(=O)(=O)NC3CCCC3)cc2)c1	-10	-8	6	-13	i	-3	x	4
Cc1ccc2nc(SCC(=O)c3c[nH]c4ccccc34)[nH]c2c1	-1	x	-3	0	i	9	x	15
Cn1cnnc1Sc1ccc(C(=O)OCC(=O)Nc2ccccc2)cc1[N+](=O)[O-]	-5	-32	2	5	i	-6	4	0
Cc1ccc(S(=O)(=O)N2CC=C(C(=O)NCc3ccccc3)CC2)cc1	0	-9	0	0	i	17	-11	-20
O=C(CSc1nc2ccccc2c(=O)n1-c1ccc(F)c(Cl)c1)Nc1cccc(S(=O)(=O)N2CCOCC2)c1	-13	x	0	-3	i	-8	-4	-33
Cn1ncc(C#N)c1/N=C/N1CCCC1	-7	-16	1	5	i	1	-11	-15
COc1ccccc1CN(CC(=O)NCC1CCCO1)C(=O)CNS(=O)(=O)c1ccc(C)cc1 (configuration not stated)	-4	-2	5	9	i	1	10	x

This is a random part of the collection; any-hit rate near 3%.
